NPYLR7 agonist: activates Aedes aegypti NPYLR7 receptor. actives 0.15% (n = 270,000). HEK293T NPYLR7/Galpha15, GCaMP6s calcium fluorescence. activation, % at 10 µM. AID 1259423; in the data active = activation above about 40%;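 also: 0% = vehicle and 100% = reference agonist at the receptor; some compounds past the cut are filed as inactive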
NPYLR7 agonist max-min: further read-out of NPYLR7 agonist, marked with its call; activation, %; measured here: Max-Min RFU normalised activation; some inactives read as strong as hits;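 span of the calcium signal over five minutes; 0% = vehicle and 100% = native peptide agonist; compound fluorescence can raise it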
Numbers without * were called inactive; & = joins results of further samples.

The first 3 compounds, to show the layout:
SMILES | NPYLR7 agonist | NPYLR7 agonist max-min
CNC(=O)C1CCC(Cn2c(=O)c3sccc3n(CC(=O)Nc3ccccc3)c2=O)CC1 (stereo not given) | 0 | -6
CCN(CC)c1ccc2c(NC3CCCCC3)nc(=O)oc2c1 | 12 | 9
COc1cccc2c1OCC(CN1CCCC(Cn3ccnc3C)C1)=C2 (stereo not given) | 5 | -6

The listing, from the start:
SMILES | NPYLR7 agonist | NPYLR7 agonist max-min
CNC(=O)C1CCC(Cn2c(=O)c3sccc3n(CC(=O)Nc3ccccc3)c2=O)CC1 (stereo not given) | 0 | -6
CCN(CC)c1ccc2c(NC3CCCCC3)nc(=O)oc2c1 | 12 | 9
COc1cccc2c1OCC(CN1CCCC(Cn3ccnc3C)C1)=C2 (stereo not given) | 5 | -6
CC1(C(=O)NC2CCCC2)CCN1C(=O)C1(c2ccccc2)CC1 (stereo not given) | 6 | 16
Cc1nnc(SCc2nc(C(=O)N3CCN(c4ccc([N+](=O)[O-])cc4)CC3)cs2)n1-c1cccc(Cl)c1 | -2 | 6
CC(C(=O)NCc1ccccc1)N1CCC(c2nc3ccccc3s2)CC1 (stereo not given) | -12 | -14
CCCC1(C2CCNCC2)NC(=O)N(CCn2ccnc2CC)C1=O (stereo not given) | 17 | 3
CC(SCC(=O)NCC#N)c1ccc(OC(F)(F)F)cc1 (stereo not given) | 2 | 0
CCC(CC)c1nnc(N)s1 | 0 | -7
CCc1ccc(CN2CCCC(c3nn(C)c(=O)n3CC)C2)nc1 (stereo not given) | 6 | 3

Part of the list above, field by field.
CCCC1(C2CCNCC2)NC(=O)N(CCn2ccnc2CC)C1=O (stereo not given)
  NPYLR7 agonist = 17	NPYLR7 agonist max-min = 3

CC(SCC(=O)NCC#N)c1ccc(OC(F)(F)F)cc1 (stereo not given)
  NPYLR7 agonist = 2	NPYLR7 agonist max-min = 0

CCC(CC)c1nnc(N)s1
  NPYLR7 agonist = 0	NPYLR7 agonist max-min = -7

CCc1ccc(CN2CCCC(c3nn(C)c(=O)n3CC)C2)nc1 (stereo not given)
  NPYLR7 agonist = 6	NPYLR7 agonist max-min = 3

The listing continues.
SMILES | NPYLR7 agonist | NPYLR7 agonist max-min
Cc1ccc(CS(=O)(=O)c2cn(CC(=O)Nc3nc(C)cs3)c3ccccc23)cc1 | 10 | 5
CCOC(=O)c1c(Nc2nc(OC)cc(OC)n2)n[nH]c1N | -1 | -2
COC(=O)c1ccc(C(C)Sc2nc3sccc3c(=O)n2C)o1 (stereo not given) | 2 | 2
COc1ccc(OC2CCN(C3CCCC3)CC2)c(C(=O)NCc2cc(C)n(C)n2)c1 | 3 | 0
COCCN1CC2=C(C1=O)C(c1cccc(F)c1)NC(=O)N2 (stereo not given) | 7 | 2
CCc1noc(-c2ccnc(-n3ncc(C(=O)N4CCN(c5ccccc5)CC4)c3C)c2)n1 | -6 | -7
Cc1noc2nc(-c3ccccc3C(F)(F)F)cc(C(=O)O)c12 | 6 | 4
Cn1c(C(O)c2ccc3c(c2)OCO3)nc2ccccc21 (stereo not given) | 6 | 9
Cn1c(=S)[nH]c2cc(Cl)ccc2c1=O | 4 | 2
CCOC(=O)C1(C)CCN1C(=O)c1ccccc1Br (stereo not given) | 1 | -2
CC(C)(C)c1c[n+](-c2ccccc2)c2n1CCS2 | 4 | 4
Clc1ccccc1C(c1ccccc1)(c1ccccc1)n1ccnc1 | -5&-12&0&2 | -9&-20&-3&0
Cc1nonc1OC(C)CNc1ccc([N+](=O)[O-])c(NCCOc2ccccc2)c1 (stereo not given) | -7 | -12
N#Cc1ncn(CCNC(=O)OCC(F)(F)F)n1 | 9 | 7
CCOc1ccc(-n2ccnc(SCC(N)=O)c2=O)cc1 | -1 | 6
CCOC(=O)c1c(N)sc(C(C)=O)c1C | -11&1 | -13&0
CCCCN1C(=O)C2ON(c3ccccc3)C(c3ccc(N(C)C)cc3)C2C1=O (stereo not given) | -7 | -11
COCc1c(Br)c(C)nc(OCC(=O)N/N=C\c2ccc(OCc3ccccc3)c(OC)c2)c1C#N | 15 | 18
Cc1cc(C(=O)N2CCc3ccccc3C2c2ccc(Cl)cc2)c(C)o1 (stereo not given) | 1 | -1
COCCN1CC2=C(C1=O)C(c1ccc(F)cc1)NC(=O)N2C (stereo not given) | -5 | -1
CC(=O)Nc1ccc(NC(=O)CCc2nc(-c3ccc(Cl)cc3)no2)c(C(F)(F)F)c1 | 5 | -1
Cc1cc(C)c(S(=O)(=O)N(CC(=O)N2CC(=O)N(c3ccc(Cl)cc3)C2)C(C)C)c(C)c1 | 4 | 16
CC(=O)Nc1ccc(S(=O)(=O)Nc2ccc3c(c2)CCC(=O)N3)c(C)c1 | 6 | 1
Cc1ccc(-n2ncc(C(=O)N3CCC(OCCCO)CC3)c2C2CC2)cc1Cl | -4 | -5
C=CCn1c(-c2cccnc2)n[nH]c1=S | 1 | 1
CO[C@@H](C(=O)N[C@H]1C[C@H]2CN(C)CCN2C1)c1ccccc1 | 6 | -3
COCCN(CC(=O)N(Cc1cccn1Cc1ccccc1Cl)C1CCCCC1)C(=O)c1ccc(Br)cc1 | -4 | -3
N#Cc1ccc(C(F)(F)F)nc1N1CC(n2ccnc2)C1 | 1 | -2
Cn1c(NCCN(CCO)CCCc2ccc([N+](=O)[O-])cc2)cc(=O)n(C)c1=O | -12 | -16
COCCOc1ccc(NS(=O)(=O)c2cn(C)c(Cl)n2)cn1 | 99* | 77*
CCCCn1c(N)cc(=O)n(C)c1=O | 5 | 5
CCCOc1ccnc2c1c(=O)n(CC#N)c(=O)n2C | -6 | -6
Cc1cccc(NC(=O)C2(c3cccs3)CCOCC2)n1 | -12 | -3
CS(=O)(=O)NCC1CCCCN1S(=O)(=O)c1ccccc1F (stereo not given) | 12 | 8
COc1cccc(OCC2c3ccsc3CCN2C(=O)CN(CC2CCCO2)C(=O)c2ccc3c(c2)OCO3)c1 (stereo not given) | -5 | 2
COc1ccccc1C(=O)OCC(=O)c1cccc([N+](=O)[O-])c1 | 0 | -5
COc1ccc(Cl)cc1N | -14 | -24
COc1cccc(C(=O)N(Cc2c(-c3ccc(C)cc3)noc2N2CCCC2)C(C)C)c1 | -2 | 6
CN1C(=O)COc2ccccc2CCNC(=O)C1Cc1ccc(OCCO)cc1 (stereo not given) | 4 | 13
COC(=O)C1=C(C)N(Cc2ccccc2)C(=O)NC1c1ccc(OC)c(OC)c1 (stereo not given) | 12 | 11
CN(Cc1cn2ccsc2n1)c1ccccc1F | 0 | -2
CCCn1cnc2c(c1=O)c1nc3ccccc3nc1n2Cc1ccccc1 | 1 | 0
O=C(Cc1ccncc1)N1CCc2[nH]nc(-c3cccc4ccccc34)c2C1 | 3 | 2
C=CCC(=O)N(Cc1ccccc1OCC)C1CC1 | 14 | 13
Cc1cc(C)nc(CN2CCC3(CCCO3)CCC2=O)n1 (stereo not given) | 15 | 8
Cn1c(NC(=O)c2cccc(Cl)c2)cc(=O)n(C)c1=O | 3 | 6
CC(C)(C#N)C(=O)Nc1cc(I)ccc1Cl | 0 | -1
CCc1ccc(S(=O)(=O)Nc2cccc(N3CCCC3=O)c2)cc1 | 0 | 0
O=C(CNC(=O)NCc1ccc2c(c1)OCCO2)Nc1ccc(Cl)cc1 | -1 | -4
OC(CNC1CCCCC1)CNC1CCCCC1 | 0 | -4

Next section:
SMILES | NPYLR7 agonist | NPYLR7 agonist max-min
CN(C)CCn1ccc2cc(NC(=O)C3=CC=CN4CCS(=O)(=O)N=C34)ccc21 | 2 | 77
COCCNC(=S)NCCc1cc2c(OC)ccc(OC)c2[nH]c1=O | 3 | 38
CCCc1nc(N(C)Cc2nc(-c3cccnc3)no2)c2cnn(C)c2n1 | 0 | -2
Cc1ccc(C(NC(=O)N2CCOCC2C)C2CC2)cc1 (stereo not given) | 1 | -1
CC1(C(=O)NCCCN2CCCC2=O)CCN1Cc1csc2ccccc12 (stereo not given) | -5 | -12
CCOC(=O)[C@@H]1[C@@H](O)C(=O)N(Cc2ccccc2)C12CCN(C(=O)c1ccc(F)cc1)CC2 | 20 | 30
COc1cc(OC)cc(C(=O)NCC(=O)N2CCc3sccc3C2)c1 | 15 | 21
Cc1sc2nc(CN3CCC(C)CC3)nc(N3CCN(C(=O)c4ccccc4F)CC3)c2c1C | -9 | -11
CC(CCn1cccn1)NC(=O)c1c[nH]c(=O)cn1 (stereo not given) | 14 | 7
COc1ccc(C(=O)Nc2nnc(CC(=O)N/N=C\c3c(C)[nH]c4ccccc34)s2)cc1 | 21 | 13
CCC(=O)NC(CCSC)C(=O)NCc1cc(-c2ccccc2)no1 (stereo not given) | 2 | -3
COc1ccc(OC)c(C2SCCN2S(=O)(=O)c2ccc(F)cc2)c1 (stereo not given) | 4 | -2
CN(C)C(=O)N1CCC(N2CCCC(C(=O)NCc3ccccn3)C2)CC1 (stereo not given) | 1 | -3
CCCCCN(CC(=O)Nc1cc(C(C)(C)C)nn1-c1ccc(Cl)c(Cl)c1)C(=O)c1cccc([N+](=O)[O-])c1 | 18 | 28
CCCCCOc1ccc(C(=O)NCCN(C(C)C)C(C)C)cc1OCCCCC | -8 | -10
c1ccc2c(c1)ncn2CCOCCOCCn1cnc2ccccc21 | 0&4 | 34&-1
Cc1cccc(C(=O)N2C(C(=O)NCC3CCCO3)COC23CCN(C(=O)c2ccco2)CC3)c1 (stereo not given) | 1 | 1
O=S(=O)(c1ccccc1F)N1CCN(c2nc3nccc(-c4ccc(C5CCCCC5)cc4)n3n2)CC1 | 3 | -3
CN1CCN(C2=C(c3c(-c4ccccc4)[nH]n(C)c3=O)C(=O)N(Cc3ccccc3)C2=O)CC1 | -10 | -7
COCc1nnc2c3cc(C)ccc3nc(N3CCC(Cc4ccccc4)CC3)n12 | 22 | 15
CC(C)(C)c1ccc(C(=O)N=Nc2c(O)[nH]c3ccc(F)cc23)cc1 | -2 | 7
CNCCC=C1c2ccccc2C=Cc2ccccc21 | -5 | -9
Cc1ccc(Cn2c(=O)c(C(=O)NC(C)c3ccccc3)nn(-c3cccc(Cl)c3)c2=O)cc1 (stereo not given) | 7 | 11
COc1ccc(CCNc2cc(C)nc3c4c(C)cc(C)nc4nn23)cc1OC | 1 | 18
Cc1ccc(C(C)CCN2CCC(Cc3nncn3-c3ccccc3)CC2)o1 (stereo not given) | 1 | 17
CNC(=O)CN1C(=O)CN(C(=O)c2ccc(Cl)cc2)CCC(OC)c2ccccc21 (stereo not given) | 3 | 10
COc1ccc2c(=O)c(-c3csc(C)n3)c(C(F)(F)F)oc2c1 | 0 | -5
O=C1/C(=C/c2ccc(Br)cc2)C=C(c2ccccc2)N1c1ccccc1O | 15 | 18
CC(C)(Oc1ccc(F)cc1)C(=O)NCc1csc(=O)[nH]1 | 6 | 6
CC1(Cc2ccccc2OC(F)(F)F)C(=O)Nc2cc(-c3ccccc3Cl)ccc21 (stereo not given) | 1 | 0
O=C(c1ccc(N2CCC(NCCc3ccc(C(F)(F)F)cc3)CC2)cc1)N1CCOCC1 | -1 | -5
CC(C)S(=O)(=O)c1ncc(CN2CCSCC2)n1CCc1ccccc1 | 11 | 6
CCc1ncc(C(=O)N(Cc2ccccn2)Cc2ccc(C)s2)cn1 | 7 | 5
CCN1CCN(C(c2cccc(C)c2)C2Sc3nc(C)nn3C2=O)CC1 (stereo not given) | 4 | 4
Cc1cc(=O)n2ccc([N+](=O)[O-])c(O)c2n1 | -14 | -22
CSc1ccc(CN(CCO)Cc2cccc3c2OCO3)cc1 | 6 | -9
CC(C)CNC(=O)NNC(=O)c1cccn(Cc2cccc(F)c2)c1=O | 1 | -2
CC(C)c1ccccc1NC(=O)CNc1ccccc1C(=O)NC1CC1 | 2 | -1
C/C(=C\C(=O)N1CCN(C)CC1)C(=O)O | 0 | 17
COCc1nn(Cc2nc(C(C)(C)C)cs2)c(=O)o1 | 1 | 0

3 compounds from above, sorted by molar mass, rising.
SMILES | NPYLR7 agonist | NPYLR7 agonist max-min
C/C(=C\C(=O)N1CCN(C)CC1)C(=O)O | 0 | 17
CC(C)c1ccccc1NC(=O)CNc1ccccc1C(=O)NC1CC1 | 2 | -1
CC(C)S(=O)(=O)c1ncc(CN2CCSCC2)n1CCc1ccccc1 | 11 | 6

The listing continues.
SMILES | NPYLR7 agonist | NPYLR7 agonist max-min
CONC(=O)c1cc(N2CCCC2=O)cc(C(F)(F)F)c1 | 2 | 3
Cc1ccc(NC(=O)N(Cc2ccc(OS(=O)(=O)c3cccc(C(F)(F)F)c3)cc2)Cc2ccco2)cc1 | -6 | 3
COc1ccc(C(O)=C2C(=O)C(=O)N(c3ccccn3)C2c2cccc([N+](=O)[O-])c2)cc1 (stereo not given) | 3 | 15
CCC1CCCCN1C(=O)CCN1C(=O)c2ccccc2C1=O (stereo not given) | -4 | -6
Cc1ncoc1C(=O)N1CCOC(CC2CCCCC2)C1 (stereo not given) | -6&18 | -9&7
Cc1cc(C)cc(OCCN(C)Cc2cc3n(n2)CCNC3)c1 | 18 | 15
COC(=O)c1cc(NC(=O)CN(C)S(=O)(=O)c2ccccc2)c(F)cc1F | 0 | -1
CCOC(=O)N1CCCC(C(=O)N(C)Cc2ccc3ccccc3c2)C1 (stereo not given) | -2 | -3
CCCCCC12CCC(CC(=O)O)(CC1)CC2 | 3 | 8
CCOC(=O)C1CCN(C(c2ccc(OC)cc2)C2Sc3nc(C)nn3C2=O)CC1 (stereo not given) | 2 | -3
CC1(CO)CCCC1Nc1c(F)cc(C#N)cc1F (stereo not given) | 3 | 0
CC1CCN(S(=O)(=O)c2cn(C)c(Cl)n2)c2ccccc21 (stereo not given) | -5 | 360
CN(C)CCCN(C(=O)c1ccc(Br)s1)c1nc2c(Cl)cccc2s1 | -1 | -3
Cc1ccc(NC(=O)NCC(c2ccco2)N(C)C)cc1 (stereo not given) | 6 | 6
COc1ccc(-c2cn3nc(SCC(=O)Nc4cc(C)ccc4C)ccc3n2)cc1 | 3 | 2

Compound activity as filed in PubChem BioAssay.

An excerpt; rates above refer to the full screens.
